AID923 – qHTS Assay for Allosteric/Competitive Inhibitors of Caspase-1: Spectroscopic Profiling in AFC Spectral Region. compound fluorescence, AFC spectral region (405/520 nm); almost no hit is shown here. Potency, µM (series often up to 57.5 µM), inactives show top-dose fluorescence increase, hits mostly activators. hit rate 1.1% among 75,000. AID 923, 2007; active = well fitted activation curve with a large enough effect;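 note: 0% is about no effect; scaled to a free AFC standard on each plate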
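Baseline compound fluorescence (AFC region, 405 nm ex/520 nm em) taken from the intercept of kinetic reads with 50 nM caspase-1 and 5 uM Ac-WEHD-AFC; normalized to an on-plate AFC standard curve; compounds titrated up to 57 uM.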
* marks the source's active call; other numbers are inactive results; [ ] = another dose, or the depositor's remark. Potency is the fitted concentration of half-maximal effect. These rows are one share of the data (hit frequency here may not be typical).

compound | AID923
COC(=O)c1cccc(C23CC4(C2)[C@H](CN(C)[C@@H]4c2ccccc2)C3c2ccccc2)c1 (stereo partly specified) | -0.6%
O=c1cc(-c2ccccc2)oc2cc(O[C@@H]3O[C@H](CO)[C@@H](O)[C@H](O)[C@H]3O)c(O)c(O)c12 | -1.7%
CCOc1ccc(OCC)c(Nc2cc(C)nc3ncnn23)c1 | -0.9%
CN(Cc1cc(Br)cc(Br)c1N)C1CCCCC1 | 0.1%
COc1ccc2c(c1)OC/C(=C/c1ccc(O)c(O)c1)C2=O | -0.7%
c1ccc(-c2ccc(CN3C[C@@H]4C(c5ccccc5)C5(c6cccnc6)CC4(C5)[C@H]3c3ccccc3)cc2)cc1 (stereo partly specified) | 1.7%
COCCN=C1OC(=O)N2C(=O)C3=C4C(C[C@H]5C(=O)N(c6ccccc6)C(=O)[C@H]5[C@H]4[C@@]12Cc1ccccc1)[C@H]1C(=O)N(c2ccccc2)C(=O)[C@H]1[C@H]3C (stereo partly specified) | 1.7%
COc1cc2c(cc1OC)-c1c(oc3cc(O)cc(O)c3c1=O)CO2 | -1.0%
c1ccc2c(c1)CC(N1CCCCC1)c1ccccc1N2 (stereo unspecified) | 0.9%
CCC(=O)OCC(=O)C1(OC(=O)CC)C(C)CC2C3C(Cl)CC4=CC(=O)C=C[C@@]4(C)C3C(O)C[C@@]21C (stereo partly specified) | -1.7%
C=C1C(=O)OC2C[C@@]3(C)CCCC(=C)[C@@H]3CC12 (stereo partly specified) | -1.8%
CN(C)c1ccc(/C=[N+](\[O-])C(C)(C)/C=N/O)cc1 | 10%
COC(=O)CC1C(C)(C)C(=O)C2CC3=C4CC(=O)OC(c5ccoc5)[C@]4(C)CCC3[C@@]1(C)C2=O (stereo partly specified) | -0.3%
COC(=O)[C@@H]1C[C@@]2(O)[C@H](O)[C@H](O)[C@H](O)C[C@H]2N1Cc1ccc(C(F)(F)F)cc1 | -0.7%
O=C(O)P(=O)(O)O | -1.2%
NC(=O)c1ncn(C2OC(CO)C(O)C2O)c1N (stereo unspecified) | -0.9%
COC(=O)C(c1ccccc1Cl)N1CCc2sccc2C1 (stereo unspecified) | -0.9%
C1N2CN3CN1CN(C2)C3 | -0.5%
NCC1OC(n2cnc3c(=O)[nH]c(N)nc32)C(O)C1O (stereo unspecified) | -0.1%
CCCCCCCCCCCCCCCCOP(=O)([O-])OCC[N+](C)(C)C | 1.9%
CCCCSc1nnc(-c2ccccc2N)c(=O)[nH]1 | -0.2%
COc1cc(-c2coc3cc(OCc4ccccc4)c(OC)c(O)c3c2=O)cc(O)c1OC | -0.1%
Cc1ccc(CC(Cc2nc3ccccc3[nH]2)c2nc3ccccc3[nH]2)cc1 (stereo unspecified) | -3.4%
O=C(CSc1nnc(CSc2nc3ccccc3s2)o1)NC1CCCCC1 | -2.4%
CCC1=C2CC[C@H]3C(=O)N(c4ccccc4)C(=O)[C@H]3[C@H]2[C@@]2(C)C(=O)N(Cc3ccccc3)C(=O)N2C1=O | 0.7%
COc1cc2c(cc1OC)C(C)N(C(=O)c1cc3ccccc3o1)CC2 (stereo unspecified) | -0.5%
CC1=CC2C(C(C)C)CCC(C)(O)C2CC1 (stereo unspecified) | 0.3%
CCc1cc2c(c(CC)n1)CCC(=O)N2Cc1ccc(-c2ccccc2-c2nn[nH]n2)cc1 | -1.5%
O=c1[nH]c(Cl)nc2c1ncn2C1OC(CO)C(O)C1O (stereo unspecified) | -0.4%
Cc1c(O)cc(O)c2c(=O)c(-c3ccc(O)cc3)coc12 | -3.0%

Gathered by group, those above with an aryl thioether with sulfur outside any ring.
compound | AID923
CCCCSc1nnc(-c2ccccc2N)c(=O)[nH]1 | -0.2%
O=C(CSc1nnc(CSc2nc3ccccc3s2)o1)NC1CCCCC1 | -2.4%

The results go on:
compound | AID923
COC(=O)c1ccc(C(NC(=O)OCc2ccccc2)/C(=C/[C@@H](C)C(=O)NCc2ccccc2)c2cccnc2)cc1 (stereo partly specified) | -1.1%
COC(=O)c1cc(OC)c(OC)cc1-n1cnc2cc(OC)c(OC)cc2c1=O | 0.5%
NCC1O[C@@H](OC2C(N)CC(N)C(O)C2O[C@@H]2OC(CO)C(O)C2O)C(N)C(O)C1O (stereo partly specified) | 0.2%
O=S(=O)(O)c1cc(N=C=S)ccc1/C=C/c1ccc(N=C=S)cc1S(=O)(=O)O | 0.5%
NCCCC(O)(P(=O)(O)O)P(=O)(O)O | -1.9%
CCc1cccc(NC(=O)CS(=O)Cc2nc(-c3ccc(C)cc3)oc2C)c1 (stereo unspecified) | 0.4%
Cc1ccc(S(=O)(=O)N(CC(=O)N2CCCC2)C2CCCCC2)cc1 | 0.5%
COc1ccc(/C=C/C(=O)c2cccs2)c(OC)c1 | 20%
O=C(Nc1cccc(Cl)c1)NC1CCCCC1 | 0.0%
COc1ccc(NC(=O)CCSc2nnc(C)s2)cc1 | 1.0%
COC(=O)[C@@H]1C[C@@]2(O)[C@@H](O)[C@@H](O)[C@@H](O)C[C@H]2N1Cc1ccc(C(F)(F)F)cc1 | -1.0%
COc1cc(OC)c2c(OC)c(-c3ccc4c(c3)OCO4)c(=O)oc2c1 | 2.4%
O=C(c1ccc2c(c1)OCO2)N1CCN(c2ccc(Cl)cc2)CC1 | -4.8%
Cn1c(N)c(C(=O)COC(=O)c2cc(C3CC3)nc3ccccc23)c(=O)n(Cc2ccccc2)c1=O | 4.6%
Cc1noc(C)c1S(=O)(=O)N(CC(=O)NCc1ccc(Cl)cc1)c1ccc2c(c1)OCO2 | 1.3%
COc1ccc(-c2cc(=O)c3cc(OC)ccc3o2)cc1 | -3.8%
CC(C)NCC(O)COc1ccc(COCCOC(C)C)cc1 (stereo unspecified) | -3.9%
CCN(CC)CC(O)Cn1c2ccccc2c2ccccc21 (stereo unspecified) | 2.2%
COc1cc(O)c2c(=O)c(O)c(-c3ccc(O)c(O)c3)oc2c1 | 10%
CCC(C)C(=O)O[C@H]1C[C@@H](C)C=C2C=C[C@H](C)[C@H](CC[C@@H]3C[C@@H](O)CC(=O)O3)C21 (stereo partly specified) | -1.2%
COCCN(CCOC)c1nc(C)nc2c1nc(-c1ccccc1)n2CCCN1CCCCC1C (stereo unspecified) | 1.1%
CCOC(=O)N1CCN(C(=O)c2ccccc2Oc2ccccc2)CC1 | 2.0%
C=C1CC/C=C(\C)CC[C@@H]2[C@@H]1CC2(C)C | -1.6%
CCC1=C(OC(=O)N(CC)CC)N2C(=O)OC(=NCCc3c[nH]c4ccccc34)[C@]2(C)[C@H]2C1=CC[C@H]1C(=O)N(CC)C(=O)[C@H]12 | 0.5%
C=C(NC(=O)C(=C)NC(=O)c1csc(C2=NC3c4csc(n4)C4NC(=O)c5csc(n5)C(C(C)(O)C(C)O)NC(=O)C5CSC(=N5)C(=CC)NC(=O)C(C(C)O)NC(=O)c5csc(n5)C3(CC2)NC(=O)C(C)NC(=O)C(=C)NC(=O)C(C)NC(=O)C(C(C)CC)NC2C=Cc3c(C(C)O)cc(nc3C2O)C(=O)OC4C)n1)C(N)=O (stereo unspecified) | 0.2%
CCC(C)C(=O)OC1C2CC3=C4CC(=O)OC(c5ccoc5)[C@]4(C)CCC3[C@@](C)(C2=O)C(CC(=O)OC)C1(C)C (stereo partly specified) | 3.9%
CCn1c(C(=O)N2CCC(C(=O)NCc3ccc4c(c3)OCO4)CC2)cc2sccc21 | 1.9%
CC(CCc1ccccc1)NC(=O)C1CCN(C(=O)c2sccc2-n2cccc2)CC1 (stereo unspecified) | -3.4%
OC[C@H]1O[C@@H](n2cnc3c(NCc4ccco4)ncnc32)[C@H](O)[C@@H]1O | -0.5%
C=C1C(=O)C23C(O)C1CCC2[C@]12COC3(O)C(O)C1C(C)(C)CC[C@H]2O (stereo partly specified) | -1.5%

In the list so far, four have a furan ring, fused or not.
compound | AID923
COC(=O)CC1C(C)(C)C(=O)C2CC3=C4CC(=O)OC(c5ccoc5)[C@]4(C)CCC3[C@@]1(C)C2=O (stereo partly specified) | -0.3%
COc1cc2c(cc1OC)C(C)N(C(=O)c1cc3ccccc3o1)CC2 (stereo unspecified) | -0.5%
CCC(C)C(=O)OC1C2CC3=C4CC(=O)OC(c5ccoc5)[C@]4(C)CCC3[C@@](C)(C2=O)C(CC(=O)OC)C1(C)C (stereo partly specified) | 3.9%
OC[C@H]1O[C@@H](n2cnc3c(NCc4ccco4)ncnc32)[C@H](O)[C@@H]1O | -0.5%

The list goes on:
compound | AID923
CC(=O)Oc1cc2c(c(C)c1OC(C)=O)CC=C1[C@]3(C)CC[C@]4(C)CC[C@@](C)(C(=O)O)CC4[C@]3(C)CC[C@]12C (stereo partly specified) | -2.9%
Nc1nc2c([nH]c(=O)n2C2OC(CO)C(O)C2O)c(=O)[nH]1 (stereo unspecified) | 1.3%
CC(=O)OCCC(C)CCC=C(C)C (stereo unspecified) | -6.2%
O=C(O)C1CC=CCC1C(=O)Nc1cccc(Cl)c1Cl (stereo unspecified) | 0.1%
CCCc1nc(C(C)(C)O)c(C(=O)OCc2oc(=O)oc2C)n1Cc1ccc(-c2ccccc2-c2nn[nH]n2)cc1 | -1.7%
Nc1nc(=O)n(C2OC(CO)C(O)C2O)cc1Cl (stereo unspecified) | 0.1%
CC1=NC(Nc2nc(C)c3ccccc3n2)=NC(C)(C)C1 | -0.9%
CCOC(=O)C(C)Sc1nc(N)c(NC(=O)c2ccc(OC)c(OC)c2)c(=O)[nH]1 (stereo unspecified) | -1.5%
CC(C)=CC1C(C(=O)O)C1(C)C (stereo unspecified) | -2.0%
COc1c(CC(=O)c2cc3c(cc2O)OC(C)(C)C(O)C3)ccc2c1C=CC(C)(C)O2 (stereo unspecified) | -1.1%
COc1ccc2cc1Oc1ccc(cc1)CC1c3cc(c(OC)cc3CCN1C)Oc1c(OC)c(OC)cc3c1C(C2)N(C)CC3 (stereo unspecified) | -0.9%
CC(=O)SC1CC2=CC(=O)CC[C@@]2(C)C2CC[C@@]3(C)[C@@H](CC[C@@]34CCC(=O)O4)C12 (stereo partly specified) | -1.1%
Cc1cc(O)cc(O)c1C(=O)O | 0.0%
CC1=C(C(=O)Nc2ccccc2)C(c2ccco2)C(C#N)=C(SCc2ccccc2)N1 (stereo unspecified) | 4.4%
Fc1ccc([C@H]2CCNCC2COc2ccc3c(c2)OCO3)cc1 (stereo partly specified) | 0.2%
Cc1nnc(SC(=O)N2c3ccccc3Sc3ccccc32)s1 | 1.2%
Cc1nnc(NC(=O)c2cccc(F)c2)s1 | -0.7%
Cc1ccc(-c2nc(NC(=O)CSc3nnc4scc(-c5ccccc5)n34)ns2)cc1 | 3.1%
O=C1OCCN1/N=C/c1ccc([N+](=O)[O-])o1 | 2.6%
C[C@@H]1C(=O)O[C@H]2[C@@H](O)[C@@]34[C@H]5CC(C(C)(C)C)[C@]36[C@@H](OC(=O)[C@@H]6O)O[C@@]4(C(=O)O5)[C@@]12O (stereo partly specified) | 0.4%
CCC1=C(OC(=O)N(CC)CC)N2C(=O)OC(=NCCc3c[nH]c4ccccc34)[C@]2(Cc2ccccc2)[C@H]2C1=CC[C@H]1C(=O)N(C)C(=O)[C@H]12 | 0.6%
C=CCN(CC=C)S(=O)(=O)c1ccc2nsnc2c1 | 0.2%
CC(CCc1ccccc1)NC(=O)C1CCCN(c2nnc(-n3cccc3)s2)C1 (stereo unspecified) | -2.9%
COc1ccc(-c2cc(=O)c3c(O)c(OC)c(O[C@@H]4OC(COC5OC(C)C(O)C(O)[C@@H]5O)C(O)C(O)C4O)cc3o2)cc1 (stereo partly specified) | 1.0%
CCCN(CCC)CCNC(=O)c1cc2c(=O)n(C)c3ccccc3c2n1C | 4.7%
CC(=O)OCC1OC(n2cnc3c(=O)[nH]cnc32)C(OC(C)=O)C1OC(C)=O (stereo unspecified) | -1.9%
COc1ccc(-c2coc3ccc(OC4OC(COC(C)=O)C(OC(C)=O)C(OC(C)=O)C4OC(C)=O)cc3c2=O)cc1 (stereo unspecified) | -1.8%
Nc1ncnc2nc(Cl)[nH]c12 | 1.0%
CCCCCCCC#Cc1ccccc1/C=N/S(=O)C(C)(C)C (stereo unspecified) | -0.1%[11.5 µM]
CCC(=O)NCCC1CCc2ccc3c(c21)CCO3 (stereo unspecified) | -0.9%
S=c1ccss1 | -1.6%
COc1ccccc1-c1c(C)nn2c(C)cc(C)nc12 | 1.3%
O=C(CC(CC(=O)c1ccccc1)C(=O)O)c1ccccc1 | 0.9%
CCSc1nc2c(c(=O)[nH]1)C(C(C)C)C(C#N)=C(N)O2 (stereo unspecified) | -1.8%
CC(C)C(N)C(=O)OCCOCn1cnc2c(=O)[nH]c(N)nc21 (stereo unspecified) | -1.9%
COc1ccc(CC(N)C(=O)NC2C(CO)OC(n3cnc4c(N(C)C)ncnc43)C2O)cc1 (stereo unspecified) | 3.1%
N[C@H](Cc1ccc(O)cc1)C(=O)O | 1.1%
COC(=O)C1=C(C)NC2=C(C(=O)CC(c3cccs3)C2)C1c1ccsc1 (stereo unspecified) | 20%
CCOC(=O)c1ccccc1NC1c2ccccc2C(=O)N1c1ccc(C)cn1 (stereo unspecified) | 1.6%
Cc1cccc(C)c1OCc1nnc(SCC(=O)Nc2ccccc2F)o1 | 2.4%
C=C(C)C1(O)OC(=O)C=C1OC (stereo unspecified) | -1.8%
CCOC(=O)c1c(C)cc(OC)cc1O | -1.8%
Cc1cccc(-c2noc(CN(C(=O)c3c(-c4ccccc4Cl)noc3C)C(C)C)n2)c1 | -2.1%
CCOC(=O)C(CCc1ccccc1)NC(C)C(=O)N1C(C(=O)O)CC2CCCC21 (stereo unspecified) | -1.3%

Screening data deposited in PubChem BioAssay by National Center for Advancing Translational Sciences (NCATS).
